# NPYLR7 ag = mosquito NPYLR7 agonism; AID 1259423; 0.15% of 270,000 active; activation, % at 10 µM; HEK293T NPYLR7/Galpha15, GCaMP6s calcium fluorescence; in the data active means activation above about 40%;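 further: 0% = vehicle and 100% = reference agonist at the receptor; some compounds past the cut are filed as inactive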
# NPYLR7 ag max-min = further read-out of NPYLR7 ag, marked with its call; activation, %; measured here: Max-Min RFU normalised activation; some inactives read as strong as hits;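 span of the calcium signal over five minutes; 0% = vehicle and 100% = native peptide agonist; compound fluorescence can raise it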
# * hit, by the source's call; & = joins results of further samples. A portion of the library. The share of hits here may be higher or lower than overall.
SMILES,NPYLR7 ag,NPYLR7 ag max-min
O=C(CCC(=O)N1CCN(C(=O)c2ccco2)CC1)c1ccc(CCCC2CC2)cc1,-8,-13
O=C(NC1CC(=O)N(Cc2cccc(F)c2)C1)c1cc2ccccc2oc1=O (stereo not drawn),18,2
CC(c1ccccn1)N(C)C(=O)c1cccc(S(C)(=O)=O)c1 (stereo not drawn),17,4
COc1ccccc1N1C(=O)/C(=C/c2ccc(-c3ccc(Br)cc3)o2)C=C1c1ccccc1,-3,8
Cc1cccc(CNC(=O)c2ccccc2NC(=O)CC2C(=O)N(C)C(=O)N2C)c1 (stereo not drawn),5,4
CC(C)(C)c1ccc(CC(=O)N2CCC2(C)C(=O)NC2CCCCC2)cc1 (stereo not drawn),-2,-7
Cc1nnc(NC(=O)C(=O)N2CCN(C)c3ccccc3C2)s1,-1,-8
CC(C)Cc1noc(CN2C(=O)NC(C)(c3cccc(C#N)c3)C2=O)n1 (stereo not drawn),15,11
CC(C)N(C)Cc1nnnn1CC(=O)N(C)Cc1ccnc2ccccc12,16&17,3&7
O=C(NC1CCCN(C(=O)c2cccs2)C1)c1cccc2ccnn12 (stereo not drawn),8,2
CS(=O)(=O)NC1CCCC1c1ccc(Cl)cc1 (stereo not drawn),5,2
C=CCNC(=O)C[C@@H]1CCN(C(=O)Nc2ccccc2)C[C@@H]1CC,-7,-13
CCC(=O)N1CCC1(C)C(=O)NCc1ccc(SC)cc1 (stereo not drawn),4,0
O=C(NC1CCCN(CCCc2ccccc2)C1)c1ccc2nccnc2c1 (stereo not drawn),-3,-10
COc1cc(NC(=O)Cn2nc(-c3ccc(F)cc3)oc2=O)c(OC)cc1Cl,6,1
CC(C)(CCN)c1ccccc1,14,6
CC1(C)CC2(CC(C)(C)NC(=O)N2)NC(=O)N1,-4,-5
CCc1ccccc1OCCN1CCCC2(C1)CN(C)C(=O)O2 (stereo not drawn),10,6
CCCCn1c(CN(C)Cc2ncc(C)[nH]2)cnc1S(=O)(=O)C1CCCCC1,16,10
CCc1nc2c(OCc3ccccc3OC)cccn2c1N(C)C(=O)c1ccco1,10,0
O=C(CCC(=O)Nc1cccc(C(=O)O)c1)N/N=C\c1coc2cc(Cl)ccc2c1=O,-2,-6
CCN(C)CC1CCN(C(=O)CC2CCC(c3ccccc3)CC2)C1 (stereo not drawn),4,2
Brc1ccc2nc(NCCCn3ccnc3)sc2c1,4,1
O=C(NN=Cc1ccc([N+](=O)[O-])o1)C1CCN(S(=O)(=O)c2cccs2)CC1,-10,-15
Cc1c(Cl)c([N+](=O)[O-])nn1CC(=O)N1CCCC1,4,3
Cc1cc(C)nc(SCc2cc(=O)c(OC(=O)c3ccc(-c4ccccc4)cc3)co2)n1,-6,4
Cc1ccc(C(=O)c2c(N)c(C(=O)Nc3cccc(C)c3)c3ccccn23)cc1,-4,-7
CCCCNC(=O)N(Cc1ccc(OS(=O)(=O)c2ccc(F)cc2)cc1)C(C)CC (stereo not drawn),-6,5
Cn1c(C2CCN(S(C)(=O)=O)CC2)nn(CC(=O)Nc2cccc(C(F)(F)F)c2)c1=O,2,10
NC(=O)C(Cc1ccccc1)NS(=O)(=O)c1ccc(F)c(F)c1F (stereo not drawn),9,6
Cc1cc(S(C)(=O)=O)ccc1NCCOc1cccc(C#N)c1,1,1
Cc1ccccc1N1CCN(C(=O)c2cc(-c3ccccc3F)nn2-c2ccc(Cl)cc2)CC1,-2,6
CCCCCC(C)NC(=O)C(C)NC(=O)c1ccco1 (stereo not drawn),-10,-12
COc1cc(C2C3CCCC=C3C(C#N)C(=N)C2(C#N)C#N)cc(OC)c1OC (stereo not drawn),4,5
CCCN(CC1CC1)c1nc(-c2ccc(C(F)(F)F)cc2)ncc1C(=O)OCC,8,8
CCC(=O)Nc1ccccc1-c1cc(OC)ccc1OC,10,9
COCCN(CC(=O)N(CCc1c[nH]c2ccccc12)Cc1ccc(C)cc1)C(=O)Cc1cccs1,-3,5
CC(C)C1=NOC(CNC(=O)c2scc3c2CCCC3)C1 (stereo not drawn),26,16
O=C1NCCCCC1N1CCN(c2ccccc2Cl)CC1 (stereo not drawn),-2,1
CN1CCN(P(=O)(c2cccc3ccccc23)c2cccc3ccccc23)CC1,-1,-2
O=C(NCCN1CCCOC1=O)C(=O)NCCN1CCCOC1=O,5,4
COc1ccccc1/C=C/C1=NC(=C\c2ccc(SC)cc2)/C(=O)O1,0,-5
CCC(=O)N(CC(=O)OC)c1c(C)cccc1CC,2,0
O=C(O)c1cccn(Cc2ccc(Cl)cc2)c1=O,1,1
CC(=O)NCCn1c(-c2ccccc2)csc1=Nc1ccc(F)cc1,3,2
CC(C)C1(C)CC(=O)N(C(C(=O)O)c2ccccc2)C1=O (stereo not drawn),2,15
CC1CN(C(=O)OC(C)(C)C)CCN1CCCC#N (stereo not drawn),9,5
CC(C)(C)NC(=O)C1CSCN1S(=O)(=O)Cc1ccccc1 (stereo not drawn),0,3
Cc1cccc(C)c1NC(=O)c1c(Cl)nc2sccn12,7,5
CCOc1ccccc1CSc1nc2ccsc2c(=O)n1C,-7,9
CN(C)c1nc(N)nc(Cn2nccc2-c2ccncc2)n1,-3,-8
O=S(=O)(NNc1ccccc1)c1cc(Cl)ccc1Cl,0,-3
COc1ccc(Nc2ncccc2C(=O)N2CCCC2c2nnc3c(C(F)(F)F)cccn23)cc1 (stereo not drawn),0,-5
C=CCNC(=O)Nc1ccc(CC(=O)Nc2ccccc2F)cc1,-3,-6
Cc1ccc(CN(Cc2ccccc2)C(=O)CN(CCN2CCOCC2)C(=O)Nc2ccccc2C(F)(F)F)o1,-9,-5
CCOC(=O)Cc1nnc(Sc2ccc(C#N)cn2)n1C,5,4
Cc1ccc2oc(-c3ccc(Cl)cc3O)nc2c1,1,-2
Cc1nc(NCc2cccn2C)n[nH]1,8,2
Cc1ccn(CCCn2cnc(-c3ccccc3)c2-c2ccncc2)n1,-2,-10
CC1CC(C)CN(S(=O)(=O)CCCOc2ccc3c(c2)OCO3)C1 (stereo not drawn),12,15

# Continued:
SMILES,NPYLR7 ag,NPYLR7 ag max-min
Cc1ccc(-c2nc3c(c(SCCO)n2)COC(C)(C)C3)cc1,-14,-23
CCOCC(O)CNc1nncc(-c2ccc(OC)cc2OC)n1 (stereo not drawn),-4,-6
CCOC1=NN(c2ccc([N+](=O)[O-])cc2)C(=O)/C1=C\c1cccc(OC)c1OC,2,8
CCCC1CCC(c2ccc(-c3nc(C4CCCCC4)no3)cc2)CC1 (stereo not drawn),-5,-13
CCOC(=O)C1=C[C@@H](OC(CC)CC)[C@H](NC(C)=O)[C@@H](N)C1,-17,-21
COc1ccc(-n2c(=O)c3c4c(sc3n3c(=S)[nH]nc23)COC(C)(C)C4)cc1,-11,-20
Cc1cc(Cl)ccc1N1CCN(C(=O)c2ccc3c(c2)OCO3)C(C)C1=O (stereo not drawn),0,4
Cc1[nH]c(=S)sc1CC(=O)N1CCN(C(=O)c2ccccc2OC(F)F)CC1,6,3
COC[C@@H]1CCCN1C(=O)c1ccc2cccc(Cl)c2n1,19,11
Cc1ccc(CC(=O)NNC(=O)c2cc(C)oc2C)cc1,16,7
Cc1cc(C)c(CN2CCOC3(CNCCOC3)C2)c(-n2cccn2)c1 (stereo not drawn),-1,-1
O=C(NCCc1nc2ccccc2[nH]1)c1cc(C2CC2)n(C2CCS(=O)(=O)C2)n1 (stereo not drawn),4,2
CNC(=O)c1ccc(C2CCCN2c2nc(CCN)nc3ccccc23)s1 (stereo not drawn),-5,-4
CC(NC(=O)N1CCCN(C2CC2)CC1)c1cccc2ccccc12 (stereo not drawn),4,3
Cc1ccc2oc(CN(Cc3ccccc3Cl)C(=O)c3cnn(-c4ccccc4)c3C(F)(F)F)nc2c1,11,6

# Sorted by heavy-atom count (highest first): some entries from above
SMILES,NPYLR7 ag,NPYLR7 ag max-min
Cc1ccc2oc(CN(Cc3ccccc3Cl)C(=O)c3cnn(-c4ccccc4)c3C(F)(F)F)nc2c1,11,6
O=C(NCCc1nc2ccccc2[nH]1)c1cc(C2CC2)n(C2CCS(=O)(=O)C2)n1 (stereo not drawn),4,2
Cc1[nH]c(=S)sc1CC(=O)N1CCN(C(=O)c2ccccc2OC(F)F)CC1,6,3
Cc1cc(C)c(CN2CCOC3(CNCCOC3)C2)c(-n2cccn2)c1 (stereo not drawn),-1,-1
Cc1ccc(-c2nc3c(c(SCCO)n2)COC(C)(C)C3)cc1,-14,-23
COC[C@@H]1CCCN1C(=O)c1ccc2cccc(Cl)c2n1,19,11

# The list goes on.
SMILES,NPYLR7 ag,NPYLR7 ag max-min
C=CCn1c(N2CCC(C(N)=O)CC2)nc2c1c(=O)[nH]c(=O)n2C,13,9
CN1C(=O)c2cccc3c([N+](=O)[O-])ccc(c23)C1=O,-2,-6
CCN(C)C1=C(c2c(C)[nH]n(-c3cccc(C)c3C)c2=O)C(=O)N(Cc2ccccc2)C1=O,25,9
Cc1nnc(NC(=O)C(C)Oc2ccc(C#N)cc2)s1 (stereo not drawn),-6,0
COc1ccc(-c2ccc(=O)n(CCNC(=O)c3ccccc3C(F)(F)F)n2)cc1,-1,-2
Clc1ccc(C2CC(c3ccccc3)n3nnnc3N2)cc1 (stereo not drawn),4,0
Cc1cc(C)n(CCCC(=O)N2CC(N3CCCCC3C)C2)n1 (stereo not drawn),25,20
CCCN(Cc1cccnc1)C(=O)Nc1ccc(OCC)cc1,-2,-9
COCCCNc1ncnc2ccc(C)cc12,-7,-14
CC1(C)ON=C(c2cccc(F)c2)NC1=O,-2,-1
Cc1nc(Nc2ccc(NC(=O)Nc3ccccc3)cc2)cc(-n2ccnc2)n1,-15,-23
Clc1cncc(NC2CCCC2)n1,5,3
CN(C)c1ccc(NC(=O)C2CCCC2)cc1CN(Cc1ccc(F)cc1)S(=O)(=O)c1ccc(F)cc1,5,16
Cc1cc(NC(=O)c2noc(C)c2[N+](=O)[O-])no1,11,11
CCOc1ccc(C(=O)Nc2cc(CN(C)C)ccc2C)cc1OCC,0,-1

# Profiles, quoted from the list:
# CC(C)(CCN)c1ccccc1 is entered as NPYLR7 ag: 14; NPYLR7 ag max-min: 6
# O=C(NC1CCCN(C(=O)c2cccs2)C1)c1cccc2ccnn12 (stereo not drawn) is entered as NPYLR7 ag: 8; NPYLR7 ag max-min: 2
# Cc1cc(Cl)ccc1N1CCN(C(=O)c2ccc3c(c2)OCO3)C(C)C1=O (stereo not drawn) is entered as NPYLR7 ag: 0; NPYLR7 ag max-min: 4

# (next part)
SMILES,NPYLR7 ag,NPYLR7 ag max-min
Cn1ncc(N2CCN(c3ncnc4c3CCNC4)CC2)cc1=O,1,-1
Cc1cc(C)c2[nH]c(=O)c(CN3CCC4(CCOCC4)CC3)cc2c1,-1,-1
COc1ccc(-n2c(SCc3ccc(C(=O)NCc4cccc(C(F)(F)F)c4)cc3)nnc2-c2cccc(OC)c2)cc1,-3,0
NC(=O)c1ccc(CN2CCC3(CC2)OCc2ccccc23)cc1,-1,20
CCOC(=O)C1CCN(/C=C2\Oc3c(ccc(O)c3C)C2=O)CC1,-6,-13
O=C(c1ccc(CC2CCCNC2)cc1)N1CCN(C2CCCC2)C(=O)C1 (stereo not drawn),2,8
O=C1O[C@@H]2CN(c3cnc4ccccc4n3)C[C@@H]2N1CCCN1CCOCC1,22,12
Cc1ccccc1-n1nc2c(c1NC(=O)Cc1cccc3ccccc13)CS(=O)(=O)C2,-4,-3
Cc1cccc(OC(C)C(=O)NCc2nncn2-c2ccccc2)c1 (stereo not drawn),-2,-2
Cc1cc2nc(-c3ccc(NC(=O)c4ccc(C)c([N+](=O)[O-])c4)cc3)oc2cc1C,1,-4
COc1cccc(C(c2c(O)cc(C)[nH]c2=O)c2c(O)cc(C)[nH]c2=O)c1OC,-3,0
Cc1c(CSC(C)C)cccc1NC(=O)N1CC[C@H](O)C1,-1,0
CCOc1ccccc1CNC(=O)c1c(C)noc1-c1cccnc1,3,2
CCN(Cc1ccccc1)C(=O)c1ccccc1N1CCC(NC(=O)c2ccccc2C)CC1,-1,6
COc1ccc(Cl)cc1-c1nc(C=Nc2cccnc2)c(O)o1,-10,-15

# Already shown: 4 of the compounds above.
SMILES,NPYLR7 ag,NPYLR7 ag max-min
Cc1c(CSC(C)C)cccc1NC(=O)N1CC[C@H](O)C1,-1,0
CCOc1ccccc1CNC(=O)c1c(C)noc1-c1cccnc1,3,2
CCN(Cc1ccccc1)C(=O)c1ccccc1N1CCC(NC(=O)c2ccccc2C)CC1,-1,6
COc1ccc(Cl)cc1-c1nc(C=Nc2cccnc2)c(O)o1,-10,-15

# Following part:
SMILES,NPYLR7 ag,NPYLR7 ag max-min
CCn1c(C2CCN(Cc3c(C)nn(C)c3N3CCOCC3)CC2)n[nH]c1=O,9,18
COc1ccc(Cl)cc1S(=O)(=O)NCc1ccc2c(c1)OCO2,2,7
COc1ccc(CCNC(=O)Cn2nnc(C(=O)Nc3cccc(C)c3C)c2N)cc1OC,-5,-8
CC(Sc1nncs1)C(=O)N1CCN(C(=O)N2CCCCC2)CC1 (stereo not drawn),4,4
COc1c(C)cnc(-c2[nH]c3cccc(F)c3c2C)c1C,2,0
O=C(Cn1c2ccccc2c(=O)c2ccccc21)NCc1ccc(Cl)cc1,-2,-6
O=c1c2c3c(sc2nc2c4ccccc4cnn12)CCCC3,14,9
COc1cc(C=NN=C2CC3CCC2(C)C3(C)C)cc(OC)c1OC (stereo not drawn),1,0
COc1ccc(-c2cc(C(=O)O)n(-c3ccc(C)cc3C)n2)cc1,10,17
NC(=NN=Cc1ccc(-c2ccc(Cl)cc2Cl)o1)c1nonc1N,-1,23
Cc1ccc(C(O)=C2C(=O)C(=O)N(CCN(C)C)C2c2ccccc2F)cc1 (stereo not drawn),-2,-3
COc1cc(Cl)c(C)cc1-n1ccnc(NCc2ccccc2)c1=O,6,-2
COCCNC(=O)CSc1nnc(C)c2cnn(-c3ccc(C)c(C)c3)c12,-11,-16
NC(=O)NCC(=O)N1CCC2(CCCN(CCCc3ccccc3)C2=O)C1 (stereo not drawn),2,-1
Cc1ccc(C(=O)N2CCC(Cn3cc(C(C)O)nn3)CC2)cn1 (stereo not drawn),0,-5
Cc1nc2c(s1)C[C@@H]1[C@](C)(CO)[C@H](O)CC[C@@]1(C)[C@@H]2CC(=O)O,-10,-16

# Screening results from PubChem.
